PMK inhibit = S. pneumoniae PMK inhibitors, primary screen, biochemical, mevalonate pathway, pilot trial included; purified PMK, PK/LDH-coupled NADH absorbance 340 nm; phosphomevalonate kinase (Streptococcus pneumoniae D39); inhibition, % at 10 µM; AID 539, 2006; actives 0.49% (n = 65,000);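 active means top-ranked compounds by inhibition in the single 10 µM screen, taking a fixed number of the strongest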;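 further: 0% = full reaction with DMSO carrier and 100% = background rate without enzyme reaction; no value below 0 was filed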
DPM-DC inhibit = S. pneumoniae DPM-DC inhibitors, primary screen, biochemical, PK/LDH-coupled NADH fluorescence. diphosphomevalonate decarboxylase (Streptococcus pneumoniae D39). purified DPM-DC. calls only at 10 µM. actives 0.49% (n = 65,000);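 active means the 320 compounds with the highest percent inhibition in the single-dose primary screen, excluding strongly autofluorescent ones, cut at about 32% in these data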;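 further: kinetic rate of NADH fluorescence loss reporting ADP formed by the decarboxylase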
LYP inhibition = LYP phosphatase inhibitors, primary screen, biochemical, DiFMUP fluorescence, recombinant catalytic domain, 10 µM (AID 606) | Tyrosine-protein phosphatase non-receptor type 22 (Homo sapiens) | recombinant LYP catalytic domain, DiFMUP fluorescence; higher % means a stronger effect | inhibition, % at 10 µM; hits with a dose series show IC50 in µM | 52,000 tested, under 10 active;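 active means IC50 under 40 µM in the dose-response test; inactive means IC50 of 40 µM or more, or never dose-tested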
Bfl-1 inhibitors = Bfl-1 inhibitors, primary screen, biochemical, fluorescence polarization, FITC-Bid, mouse (AID 432); displacement, % at 20 µM; hits with a dose series show IC50 in µM; actives 0.02% (n = 64,000); FITC-Bid BH3 peptide fluorescence polarization displacement; higher % means a stronger effect; Bcl-2-related protein A1 (Mus musculus); in the data active means a potency from the dose series; inactive means the rest, 99 in 100 with displacement below about 15%; further: strong numbers were not always called active
HT1080 cytotoxicity = cytotoxicity in HT1080 fibrosarcoma cells, cell-based, fluorescence readout (AID 620). HT1080 viability, fluorescence; higher % means a stronger effect. one-dose cytotoxicity, % at 10 µM; EC50 in µM for titrated hits. actives 0.42% (n = 87,000); in the data active means cytotoxicity above about 50%;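 further: cells exposed to compound overnight then 4 h with Alamar Blue; 0% = vehicle DMSO and 100% = killing control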
PMK inhibit pilot replicates = further read-out of PMK inhibit, marked with its call; inhibition, %; measured here: pilot screen replicates
DPM-DC inhibit pilot screen % = recorded beside DPM-DC inhibit, whose call it bears; inhibition, %; measured here: pilot screen trials
* hit, by the source's call; i = inactive; . = not tested or not shown. Only part of the results is shown; count on the stated rates, not on these rows.

#	compound	Bfl-1 inhibitors	DPM-DC inhibit pilot screen %	LYP inhibition	PMK inhibit pilot replicates
1	Cc1cc(NC(=O)COC(=O)c2n[nH]c3ccccc23)no1	-4.5%	.	5.5%	.
2	O=C(CN1C(=O)C2C3C=CC(C3)C2C1=O)Nc1nc(SCc2ccc(Cl)cc2)n[nH]1 (configuration not stated)	-5.6%	.	-0.7%	.
3	NC(CO)C(=O)NNCc1ccc(O)c(O)c1O (configuration not stated)	-7.8%	4.5	24.8%	1.0
4	COc1cc(OC)c(C(=O)Nc2ncn[nH]2)cc1OC	0.4%	3.5	-13.5%	0.0
5	O=C(CCCn1c(SCC(=O)c2ccc(O)c(O)c2)nc2ccccc2c1=O)NCC1CCCO1 (configuration not stated)	2.6%	.	-19.6%	.
6	CCOc1ccc(OCC)c(NC(=O)CN2CCN(c3cc(C)ccc3C)CC2)c1	1.4%	.	7.4%	.
7	COc1ccccc1N1CCN(C2CCN(C(=O)c3cc(OC)c(OC)c(OC)c3)CC2)CC1	2.1%	.	0.2%	.
8	CC(O)Cn1cnc2c1c(=O)n(C)c(=O)n2C (configuration not stated)	-4.7%	0.0	-4.6%	4.0

#	PMK inhibit	HT1080 cytotoxicity	DPM-DC inhibit
1	18.0	5.8%	i
2	8.0	-10.3%	i
3	5.0	-5.7%	i
4	14.0	2.9%	i
5	15.0	23.3%	i
6	0.0	-11.1%	i
7	1.0	-6.3%	i
8	6.0	-4.0%	i

(cont.)
#	compound	Bfl-1 inhibitors	DPM-DC inhibit pilot screen %	LYP inhibition	PMK inhibit pilot replicates
9	Cc1ccc(S(=O)(=O)N2CCCCC2)cc1C(=O)Nc1ncn[nH]1	1.6%	.	-1.9%	.
10	Cc1ccc2[nH]c(=O)c(CN(CCN3CCOCC3)C(=O)Nc3ccccc3F)cc2c1	-10.1%	.	.	.
11	COc1cc(NC2c3ncccc3C(=O)N2Cc2ccco2)cc(OC)c1 (configuration not stated)	-7.5%	.	6.1%	.
12	Cc1nc2c3cnn(-c4ccc(C)c(C)c4)c3ncn2n1	-6.7%	.	4.9%	.

#	PMK inhibit	HT1080 cytotoxicity	DPM-DC inhibit
9	9.0	0.8%	i
10	13.0	.	i
11	17.0	2.7%	i
12	15.0	28.7%	i

One compound at a time (already shown):
`Cc1nc2c3cnn(-c4ccc(C)c(C)c4)c3ncn2n1` is entered as Bfl-1 inhibitors = -6.7%; DPM-DC inhibit pilot screen % = .; LYP inhibition = 4.9%; PMK inhibit pilot replicates = .; PMK inhibit = 15.0; HT1080 cytotoxicity = 28.7%; DPM-DC inhibit = i
`COc1cc(NC2c3ncccc3C(=O)N2Cc2ccco2)cc(OC)c1` (configuration not stated) is entered as Bfl-1 inhibitors = -7.5%; DPM-DC inhibit pilot screen % = .; LYP inhibition = 6.1%; PMK inhibit pilot replicates = .; PMK inhibit = 17.0; HT1080 cytotoxicity = 2.7%; DPM-DC inhibit = i

Screen by screen, as entered above.
DPM-DC inhibit for nos. 5 to 10: i, i, i, i, i, i

Single values from the list.
Bfl-1 inhibitors, #11 stands at -7.5%
LYP inhibition, #12 stands at 4.9%
PMK inhibit, #9 stands at 9.0
Bfl-1 inhibitors, #10 stands at -10.1%

Some entries already given, reduced to DPM-DC inhibit and DPM-DC inhibit pilot screen %.
cpd | Compound | DPM-DC inhibit | DPM-DC inhibit pilot screen %
9 | Cc1ccc(S(=O)(=O)N2CCCCC2)cc1C(=O)Nc1ncn[nH]1 | i | .
10 | Cc1ccc2[nH]c(=O)c(CN(CCN3CCOCC3)C(=O)Nc3ccccc3F)cc2c1 | i | .
11 | COc1cc(NC2c3ncccc3C(=O)N2Cc2ccco2)cc(OC)c1 (configuration not stated) | i | .
